MARV entry inh: inhibitors of Marburg virus binding or cell entry | Marburg virus pseudotyped entry inhibition, cell reporter; control for the full effect not named in the record; about a third of the inactives were read at about 46 µM | Potency, µM (series often up to 37.8 µM), inactives show at the highest dose activity change, negative = inhibition, actives largely listed as inhibitors | 1.8% of 300,000 active | AID 540276; active = well fitted inhibition curve with a large enough effect; inconclusive = small, poorly fitted or top-dose-only effect, or effect the other way; inactive = flat fitted curve, though single readings scatter; tested in HEK293 cells; about a fifth of its hits are not listed in these tables; note: % is set by controls: 0 for no effect and ±100 for the full control effect; luciferase read-out
SARS PLP yeast: SARS-CoV PLP inhibition in yeast; S. cerevisiae expressing SARS-CoV PLpro, growth rescue; control for the full effect not named in the record; Potency, µM (highest dose often 32.9 µM), without a hit: at the top dose activity, positive = growth rescue; 0.19% of 330,000 active; active means well fitted rising curve with a large enough effect; inconclusive means small, poorly fitted or top-dose-only effect; inactive means no such curve, though single readings can be large or run the other way; note: 0% is about no effect; nearly all actives have a fitted effect of over 55% in size; growth read by luminescence after 48 h
StopGo reporter: lowers the luciferase signal of an FMDV 2A StopGo reporter; human cells with a luciferase reporter of 2A StopGo recoding; control for the full effect not named in the record; Potency, µM (top dose mostly 57.9 µM), for the others: at the top dose signal change, negative = less light; 1.2% of 410,000 active; AID 1159524; active = well fitted falling curve with a large enough effect; inconclusive = small, poorly fitted or top-dose-only effect; inactive = no such curve, though single readings can be large or run the other way; tested in HEK293T cells; note: % is set by controls: 0 for no effect and ±100 for the full control effect; nearly all actives have a fitted effect of over 45% in size; luciferase light after 4 h
Lassa entry inh: blocks Lassa virus binding to or entry into cells. Lassa virus pseudotype entry inhibition, cell reporter; control for the full effect not named in the record. Potency, µM (highest dose often 37.9 µM), for inactives: at the highest dose activity change, negative = inhibition, actives largely listed as inhibitors. 1.2% of 300,000 active. AID 540256; active means well fitted inhibition curve with a large enough effect; inconclusive means small, poorly fitted or top-dose-only effect, or effect the other way; inactive means flat fitted curve, though single readings scatter; tested in HEK293 cells; note: % is set by controls: 0 for no effect and ±100 for the full control effect; nearly all actives have a fitted effect of over 50% in size; luciferase read-out
Cruzain inh noDet: blocks cruzain activity in detergent-free assay. P25779. purified cruzain, Z-FR-AMC fluorescence, no detergent. Potency, µM, for the others: max response, negative = inhibition, actives largely listed as inhibitors. 2.3% of 200,000 active;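 note: plate controls were enzyme without inhibitor for no effect and buffer without enzyme for full effect; nearly all actives have a fitted effect of over 40% in size; top concentration of the series not given in the record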
Target sequence (P25779 123-467 limits assumed): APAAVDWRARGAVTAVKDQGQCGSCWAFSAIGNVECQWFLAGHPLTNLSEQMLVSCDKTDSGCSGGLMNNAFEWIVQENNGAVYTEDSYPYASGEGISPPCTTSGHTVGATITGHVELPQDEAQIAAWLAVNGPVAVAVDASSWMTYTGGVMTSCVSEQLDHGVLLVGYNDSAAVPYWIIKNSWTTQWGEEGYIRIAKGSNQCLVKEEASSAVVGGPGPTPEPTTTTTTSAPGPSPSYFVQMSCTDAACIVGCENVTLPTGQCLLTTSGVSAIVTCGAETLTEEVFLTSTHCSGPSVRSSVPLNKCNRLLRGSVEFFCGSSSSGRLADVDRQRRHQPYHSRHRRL
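Detergent-free condition (0.00005% Triton X-100) in acetate buffer pH 5.5 with DTT. 1.5 nM enzyme and compound were pre-mixed 15 min, then 2 uM Z-FR-AMC substrate added; reaction progress from fluorescence change between first and third reads (60 s).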
NS1 inh: blocks influenza NS1 protein function; S. cerevisiae slowed by influenza A NS1, growth recovery by OD600; Potency, µM (series often up to 46.1 µM), without a hit: top-dose activity, positive = more growth; 0.4% of 270,000 active; AID 2326; active means well fitted rising curve with a large enough effect; inconclusive means small, poorly fitted or top-dose-only effect; inactive means no such curve, though single readings can be large or run the other way; note: nearly all actives have a fitted effect of over 50% in size
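Recovery from NS1-induced slow growth read by OD600 in budding yeast switched to galactose assay medium (pH 6.0, -URA) at 1:100 dilution. Compound 23 nl per well; the matching strain lacking NS1 serves as control.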
RE007 growth inh: less growth of the S. pombe RE007 Vpr strain | S. pombe RE007 Vpr strain, BacTiter-Glo ATP luminescence, 24 h; control for the full effect not named in the record | Potency, µM (titrated, usually from 92.2 µM), for inactives: at the top dose activity change, negative = less growth | 0.21% of 360,000 active; active = well fitted falling curve with a large enough effect; inconclusive = small, poorly fitted or top-dose-only effect; inactive = no such curve, though single readings can be large or run the other way;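 note: % is set by controls: 0 for no effect and ±100 for the full control effect; nearly all actives have a fitted effect of over 50% in size; the assay follows cell death caused by Vpr and the record does not say whether a fall means rescue or toxicity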
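Fission yeast strain RE007, carrying one chromosomally integrated HIV-1 vpr copy, was seeded at OD 0.01 in PMG+AL medium with 23 nL pinned compound. After 24 h at 30 °C and 99% humidity, viability was read by BacTiter-Glo luminescence.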
Cruzain Triton: blocks cruzain activity in presence of Triton detergent | P25779 | purified cruzain, Z-FR-AMC fluorescence, 0.01% Triton | 0.43% of 200,000 active | Potency, µM, inactives show max response, negative = inhibition, usual class: inhibitors;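 note: plate controls were neutral wells for no effect and buffer without enzyme for full effect; nearly all actives have a fitted effect of over 40% in size; top concentration of the series not given in the record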
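In this qHTS format, compounds are incubated with 1.5 nM cruzain for 15 min at room temperature before 2 uM Z-FR-AMC is added. Release of AMC is followed at 360/450 nm, and progress is taken as the 60 s fluorescence difference.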
* = called active by the depositor; ? = inconclusive; . = not tested or not shown; & = joins results of further samples; ! = not confirmed by another sample; [ ] = remark or other dose. Unless noted, calls come from the whole dose curve; as a rule, active = well fitted curve in the direction sought with a large enough effect; inconclusive = small, poorly fitted or top-dose-only effect, or another doubt; inactive = no such curve, though single readings can be large; an effect the other way counts as inactive or inconclusive. Potency is the fitted concentration of half-maximal effect.

Sample of the layout:
SMILES | MARV entry inh | SARS PLP yeast | StopGo reporter | Lassa entry inh | Cruzain inh noDet | NS1 inh | RE007 growth inh | Cruzain Triton
CC(C)c1ccc(NC(=O)CN2C(=O)COc3ccc(S(=O)(=O)N4CCCCCC4)cc32)cc1 | . | . | -11% | ? | -26% | . | . | 3.6%
O=C(N/C=C\c1ccccc1)NCc1ccc(Cl)cc1 | 10% | 1% | 7% | 3% | -4% | -3% | -2% | -1.6%
CCc1nc(SCC(=O)N2CC(=O)Nc3ccccc32)c2c(C)c(C)sc2n1 | ? | 1% | . | -28% | 24% | 15% | 2% | -4.4%
O=C(c1ccc2c(=O)n(Cc3ccc4c(c3)OCO4)c(=S)[nH]c2c1)N1CCCCC1 | 3% | 3% | 10% | -6% | -28% | ? | 6% | 12%
Cc1ccc(CS(=O)(=O)c2ccc(C(=O)N3CCCCC3)cc2[N+](=O)[O-])cc1 | ? | 0% | ? | -35% | . | . | 22% | .
O=C(CO/N=C/c1ccc(OC(F)F)cc1)NC1CCCCC1 | -23% | -1% | -14% | 1% | . | . | -18% | .
Cc1noc(NS(=O)(=O)c2ccc(NC(=O)CSc3nc4c(cc3C#N)CCC4)cc2)c1C | 4%&4% | -11% | -19% | 0% | 12% | -8% | 13% | -4.4%
COc1ccc(NC(=O)CSc2nc3nc(C)cc(C)c3c(=O)[nH]2)cc1 | 9%[46.1 µM] | -3% | -16% | 12% | . | -14% | -8% | .
Fc1ccccc1NC(=S)N1CCN(Cc2ccccc2)CC1 | 4% | -1% | -4% | 0% | -8% | -8% | 5% | -2.2%

The list itself (from the top)
SMILES | MARV entry inh | SARS PLP yeast | StopGo reporter | Lassa entry inh | Cruzain inh noDet | NS1 inh | RE007 growth inh | Cruzain Triton
CC(C)c1ccc(NC(=O)CN2C(=O)COc3ccc(S(=O)(=O)N4CCCCCC4)cc32)cc1 | . | . | -11% | ? | -26% | . | . | 3.6%
O=C(N/C=C\c1ccccc1)NCc1ccc(Cl)cc1 | 10% | 1% | 7% | 3% | -4% | -3% | -2% | -1.6%
CCc1nc(SCC(=O)N2CC(=O)Nc3ccccc32)c2c(C)c(C)sc2n1 | ? | 1% | . | -28% | 24% | 15% | 2% | -4.4%
O=C(c1ccc2c(=O)n(Cc3ccc4c(c3)OCO4)c(=S)[nH]c2c1)N1CCCCC1 | 3% | 3% | 10% | -6% | -28% | ? | 6% | 12%
Cc1ccc(CS(=O)(=O)c2ccc(C(=O)N3CCCCC3)cc2[N+](=O)[O-])cc1 | ? | 0% | ? | -35% | . | . | 22% | .
O=C(CO/N=C/c1ccc(OC(F)F)cc1)NC1CCCCC1 | -23% | -1% | -14% | 1% | . | . | -18% | .
Cc1noc(NS(=O)(=O)c2ccc(NC(=O)CSc3nc4c(cc3C#N)CCC4)cc2)c1C | 4%&4% | -11% | -19% | 0% | 12% | -8% | 13% | -4.4%
COc1ccc(NC(=O)CSc2nc3nc(C)cc(C)c3c(=O)[nH]2)cc1 | 9%[46.1 µM] | -3% | -16% | 12% | . | -14% | -8% | .
Fc1ccccc1NC(=S)N1CCN(Cc2ccccc2)CC1 | 4% | -1% | -4% | 0% | -8% | -8% | 5% | -2.2%
CCOC(=O)c1cnc2c(-c3ccccc3)c(-c3ccccc3)nn2c1C | ? | 0% | -20% | -22%[46.1 µM] | . | -6% | -19% | .
O=C(CCC(=O)N(CC(=O)NC1CCCCC1)Cc1ccco1)Nc1nccs1 | -10% | -3% | -22% | 2% | -2% | -3% | 0% | 1.5%
COc1ccc(-c2cc(C(=O)NCCN3CCOCC3)no2)cc1OC | 23%[46.1 µM] | 2% | 2% | 4%[46.1 µM] | . | -8% | 1% | .
O=C1CC(c2ccccc2)c2ccc(O)cc2O1 (stereo not given) | 12% | 1% | -25% | 0% | -2% | 3% | -7% | -0.2%
Cc1cc(C)n(/C(=C\N(C)C)C(=O)c2ccc(Cl)cc2)n1 | -2%[46.1 µM] | 4% | 11% | 14%[46.1 µM] | . | -3% | -5% | .
O=C(NCc1ccccc1Cl)C1CCCN(c2ncnc3c2nc2n3CCCCC2)C1 (stereo not given) | ? | 12% | -1% | ? | . | -22% | 2% | .
O=C(Cc1c(F)cccc1Cl)Nc1cc(S(=O)(=O)N2CCOCC2)ccc1N1CCOCC1 | 8% | 1% | 4% | 8% | . | . | -5% | .
Cc1nn(-c2cc(N(S(C)(=O)=O)S(C)(=O)=O)c(Cl)cc2Cl)c(=O)n1C | ? | -9% | -18% | -1% | -5% | -8% | 15% | -1.6%
CCc1ccccc1NC(=O)CN(C1CCCCC1)S(C)(=O)=O | 4% | 2% | 8% | ? | . | 23% | -13% | .
CC1=C(C(=O)Nc2ccc(CC(=O)NCc3ccc(OC(C)C)cc3)cc2)SCCO1 | . | 17% | 68%[activator] | . | . | 6% | 19% | .
CCOC(=O)c1c(CNCCN(CC)CC)n(C)c2cc(Br)c(OC)cc12 | 11µM*! | -6% | -26% | ? | 4% | -5% | -16% | -2.7%
COc1cc(N2C(=O)CSC23C(=O)N(Cc2ccc(C)cc2)c2ccccc23)cc(OC)c1OC (stereo not given) | . | . | -20% | -13%[46.1 µM] | ? | . | . | -6.6%
CCOc1ccc(CCNC(=O)c2nnc(Cc3cc(OC)c(OC)c(OC)c3)o2)cc1OCC | -13%[46.1 µM] | . | -3% | 4%[46.1 µM] | ? | . | . | -3.7%
Cc1cc(C)nc(NS(=O)(=O)c2ccc(NC(=O)c3cc(=O)c4ccc(C)c(C)c4o3)cc2)n1 | -1%[46.1 µM] | . | 41%[activator] | -10%[46.1 µM] | ? | . | . | -7.9%
CCOc1ccc(NC(=O)C2CCCN(S(=O)(=O)c3ccc4c(c3)CCCN4C(C)=O)C2)cc1 (stereo not given) | . | 5% | -15% | . | . | 8% | 3% | .
O=C(COc1ccc(Cl)cc1)NCCS(=O)(=O)N1CCN(c2ccccc2F)CC1 | . | 10% | 1% | . | . | 10% | -4% | .
O=C(c1noc2c1CCCC2)N1CCN(C(c2ccccc2)c2ccccc2)CC1 | 2% | -4% | . | . | -6% | -19% | . | -3.7%
CCOc1cc(NC(=S)NCCCN2CCOCC2)c(OCC)cc1NC(=O)c1ccccc1 | -21%[46.1 µM] | -8% | 0% | -8%[46.1 µM] | . | . | 0% | .
CCN(Cc1ccccc1)S(=O)(=O)c1c(N)n(C)c(=O)n(C)c1=O | . | 1% | 2% | . | . | 0% | 4% | .
CCN(Cc1ccccc1)C(=O)c1nn(-c2ccc(OC)cc2)c(=O)c2c1c1ccccc1n2C | ? | -1% | -23%&-25% | ? | 11% | . | 6% | -16%
CSC1=NC2(CCN(C(=O)NC3CCCCC3)CC2)N=C1c1ccc(C)cc1 | . | . | -5% | -4%[46.1 µM] | -1% | . | . | -1.6%
Clc1ccc2c(c1)C(c1ccccc1Cl)=NCc1nnc(N3CCN(CCSc4ccccc4)CC3)n1-2 | ? | -1% | -10% | -21% | ? | 6% | 69% | -2.0%
CN(C)c1cc(Nc2cccc(O)c2)c([N+](=O)[O-])c2nonc12 | -7% | 2% | ? | -1% | . | 4% | 0% | .
CCN(CC(=O)NCc1ccc(Cl)cc1)C(=O)CSc1cccc(C(F)(F)F)c1 | 10% | 0% | -13% | -12% | . | . | 8% | .
Cc1oc2ncn(C)c(=O)c2c1C(=O)NCCCN(Cc1ccccc1)C(C)C | . | . | ? | 1%[46.1 µM] | 6% | . | . | -0.2%
N#Cc1nc(Cc2cccc3ccccc23)oc1NCCN1CCCCC1 | -28% | -2% | -26% | 0% | -4% | -5% | -11% | 2.5%
COC(=O)C1CN(S(=O)(=O)c2cc(OC)ccc2OC)CCS1 (stereo not given) | 4% | 14% | 6% | -9% | . | -1% | 3% | .
Cc1ccccc1C(=O)Nc1nnc(-c2ccc(C(C)(C)C)cc2)s1 | 7% | 0% | 24% | 12% | ? | 12% | 22% | -10%
Cc1nc2ccccc2n1/N=C/c1ccc([N+](=O)[O-])s1 | ? | -30% | ? | ? | -11% | -35% | ? | -5.8%
CCOC(=O)c1nnn(-c2nonc2-n2cccc2)c1C | 2%[46.1 µM] | 3% | 3% | 15% | -5% | -2% | -13% | -1.6%
COc1cccc(C2CC(=O)Nc3cc(OC)c(OC)c(OC)c32)c1OC (stereo not given) | -11% | 3% | 24% | 10% | -5% | -5% | 21% | 5.0%
CC(=O)Oc1ccc(N2C(=O)C3C4C=CC(C5CC45)C3C2=O)cc1[N+](=O)[O-] (stereo not given) | -13% | -55% | -22% | 0% | 7% | -13% | -1% | -2.3%
O=C(CSc1nccc2ccccc12)N1CCN(c2ccccn2)CC1 | . | -1% | 1% | . | -11% | -75% | -8% | -6.8%
CCN(CC(=O)Nc1ccc2c(c1)OCCO2)C(=O)c1cccc(S(=O)(=O)N2CCOCC2)c1 | 9% | -10% | -14% | 6% | 1% | -4% | 8% | 1.5%
CC1CC(c2ccccc2)n2nc(NC(=O)c3cccs3)nc2N1 (stereo not given) | 9% | 0% | -15% | -2% | -1% | 0% | 5% | 2.1%
COc1ccc(-c2[nH]ncc2/C=N\NC(=O)c2cccs2)cc1OC | . | -1% | 7% | . | . | -24% | 3% | .
COc1cccc(-n2c([S-])c(C(=O)Nc3ccc(S(=O)(=O)N4CCOCC4)cc3)[n+]3cc(C(N)=O)ccc23)c1 | -2%[46.1 µM] | 0% | 23% | -4% | . | 15% | -9% | .
CC(NC(=O)c1ccccc1N)c1ccccc1 (stereo not given) | 8%[46.1 µM] | 0% | 12% | . | . | 3% | 17% | .

Compound activity: PubChem BioAssay, National Center for Advancing Translational Sciences (NCATS)
